# ClpP mod – qHTS Assay for Activators of ClpP | Potency, µM (titrated, usually from 57.5 µM), inactives show at the highest dose activity change, negative = active | purified B. subtilis ClpP, FRET peptide cleavage, 20 min | AID 651965, 2013 | 1.9% of 340,000 active | ATP-dependent Clp protease proteolytic subunit (Bacillus subtilis (strain 168)), P80244; active = well fitted falling curve with a large enough effect; inconclusive = small, poorly fitted or top-dose-only effect; inactive = no such curve, though single readings can be large or run the other way; also: potency is read from the fitted curve at half-maximal effect; the source files actives as falling curves though it sought activators and does not explain the sign; nearly all actives have a fitted effect of over 65% in size; many hits overshoot -100%
# Target sequence (P80244 whole entry, looked up): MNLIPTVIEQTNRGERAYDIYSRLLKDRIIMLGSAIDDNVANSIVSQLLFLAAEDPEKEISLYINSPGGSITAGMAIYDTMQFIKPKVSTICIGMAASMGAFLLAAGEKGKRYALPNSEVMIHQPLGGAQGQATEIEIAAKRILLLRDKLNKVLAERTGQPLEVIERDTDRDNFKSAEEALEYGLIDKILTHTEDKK
#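 Buffer: 100 mM Tris/HCl pH8, 100 mM KCl, 0.05% low protease BSA, 2.5% glycerol, 0.01% Tween-20. ClpP 10 microg/mL final; 20 min RT; delta FRET normalized to ADEP and DMSO controls.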
# Menin-MLL FL inh – menin-MLL binding inhibition, fluorescein peptide; Fluorescence polarization, fluorescein-MLL peptide displacement from menin; FP activity change, % at 61.4 µM; 290,000 tested, under 10 active; AID 1766; inconclusive = falling polarisation curve, or a change in total fluorescence; inactive = total fluorescence flat and polarisation flat or rising; no compound was filed as active; the % refers to the polarisation; negative = inhibition;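 also: % of control where 0% means no effect; inhibitors lower the polarisation; unlabelled MLL peptide was the positive control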
# PINK1 modulator – PINK1 expression modulation; PINK1 immunofluorescence, high-content cytometry, 24 h; Potency, µM (series often up to 76.6 µM), for the others: at the highest dose activation (PINK1 increase), actives largely listed as activators; 0.2% of 410,000 active; AID 624263; active = well fitted activation curve with a large enough effect; inconclusive = small, poorly fitted or top-dose-only effect; inactive = flat fitted curve, though single readings scatter; cell line not stated here;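 also: potency is read from the fitted curve at half-maximal effect; % of control where 0% means no effect; nearly all actives have a fitted effect of over 65% in size; a mitochondrial uncoupler was the plate control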
#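 Compound titrations (5 concentrations, 24 h) on a stable cell line; DMSO and CCCP controls. Endpoint: fixed-cell PINK1 immunofluorescence with mitochondrial, cell and nuclear markers, scanned by microplate cytometer.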
# D2 ag – human D2 receptor agonism in beta-arrestin assay. 0.084% of 360,000 active. AID 624465. DiscoveRx PathHunter D2 beta-arrestin, luminescence, 90 min; 100% = 57 uM dopamine signal. activation, % (no concentration beside the values); in the data active = activation above about 40%; inconclusive = about 15% to 40%; inactive = below about 15%; also: compound concentration not given in the record; the text of the record calls up to 30% inactive
# Target sequence (P14416 whole entry, looked up): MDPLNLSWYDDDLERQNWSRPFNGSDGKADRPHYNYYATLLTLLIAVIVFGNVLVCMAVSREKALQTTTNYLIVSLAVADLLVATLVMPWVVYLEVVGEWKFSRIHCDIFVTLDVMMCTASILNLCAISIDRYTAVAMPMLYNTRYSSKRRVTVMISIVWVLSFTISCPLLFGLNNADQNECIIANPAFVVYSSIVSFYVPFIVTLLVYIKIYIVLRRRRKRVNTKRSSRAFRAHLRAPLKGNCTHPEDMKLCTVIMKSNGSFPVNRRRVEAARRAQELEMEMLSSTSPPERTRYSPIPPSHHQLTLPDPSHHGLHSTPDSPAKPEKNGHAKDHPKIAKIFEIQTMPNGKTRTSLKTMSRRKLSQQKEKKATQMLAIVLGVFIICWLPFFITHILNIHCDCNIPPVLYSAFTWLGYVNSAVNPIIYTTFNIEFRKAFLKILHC
#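 Agonist mode: compounds alone added to overnight-plated D2 PathHunter cells for 90 min at 37 C, with 57 uM final dopamine (EC100) defining full response. Beta-arrestin recruitment detected by chemiluminescent reagent, read after 1 h at ambient temperature.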
# gsp antag – gsp mutant antagonism; 0.4% of 340,000 active; AID 624288; gsp-mutant cells, cAMP HTRF, 30 min; control for the full effect not named in the record; Potency, µM (highest dose often 76.9 µM), for the others: at the top dose activity change, negative = inhibition, actives largely listed as inhibitors; active = falling curve of any shape with a large fitted effect; inconclusive = falling curve, mostly with a smaller effect; inactive = flat or rising curve; cell line not stated here;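 also: intracellular cAMP measured with PDE inhibitor Ro 20-1724 present during compound exposure; potency is read from the fitted curve at half-maximal effect; % is scaled to controls: 0 for no effect and ±100 for the full control effect; nearly all actives have a fitted effect of over 65% in size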
#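 HTRF cAMP measurement after 30 min RT detection following 30 min, 37C compound treatment alongside […] (added as 300 uM solution) in G418-selected cells seeded at 2000/well and grown 16–24 h.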
# Sfp PPTase inh – Sfp phosphopantetheinyl transferase inhibition; Q9F4F7; Biochemical Sfp PPTase activity, qHTS; Potency, µM, inactives show max response, negative = inhibition, most hits filed as inhibitors; 3.5% of 310,000 active; active = well fitted inhibition curve with a large enough effect; inconclusive = small, poorly fitted or top-dose-only effect, or another doubt; inactive = no such curve, though single readings can be large or run the other way;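 also: the enzyme is Sfp with the accession as filed and its product quenches rhodamine fluorescence; potency is read from the fitted curve at half-maximal effect; 0% = enzyme reaction without inhibitor and -100% = no enzyme wells; top concentration of the series not given in the record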
#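 Fluorescence-quenching assay: 15 nM Sfp-PPTase preincubated 15 min at room temperature with compound, then 5 uM rhodamine-CoA and 12.5 uM BHQ-2-labelled YbbR peptide added. Fluorescence (ex 525/em 598 nm) read at start and after 30 min; difference gives rate.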
# gsp ag – agonists of gsp mutant (McCune-Albright syndrome). gsp mutant cells, cAMP HTRF, 30 min; control for the full effect not named in the record. Potency, µM (titrated, usually from 76.9 µM), for inactives: at the highest dose activation (cAMP increase), actives largely listed as activators. 0.13% of 340,000 active; active = well fitted activation curve with a large enough effect; inconclusive = small, poorly fitted or top-dose-only effect, or another doubt; inactive = no such curve, though single readings can be large or run the other way; cell line not stated here;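 also: phosphodiesterase inhibitor Ro 20-1724 added with compounds to block cAMP breakdown; potency is read from the fitted curve at half-maximal effect; nearly all actives have a fitted effect of over 60% in size; about a fifth of the inactives were tested at one dose only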
#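 Cells in DMEM/10% FBS with G418 were pretreated with compounds in DMSO plus […] (300 uM stock) for 30 min at 37C. cAMP was measured by HTRF (cAMP-d2 plus anti-cAMP antibody-K) after 30 min at room temperature.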
# * hit, by the source's call; u = inconclusive; x = no result given; [ ] = remark or other dose.
1: O=C1N/C(=N/S(=O)(=O)c2ccccc2)S/C1=C/c1cccnc1
2: COc1ccc(-c2nnc(NC(=O)c3ccc(S(=O)(=O)N4CCc5ccccc5C4)cc3)o2)cc1
3: Cc1ccc(-n2c(SCC(=O)Nc3cc(C)on3)nc3c(c2=O)SC(C)C3)cc1 (stereo unspecified)
4: COc1ccc(CCNC(=O)C2CC(c3cccc([N+](=O)[O-])c3)=NO2)cc1 (stereo unspecified)
5: CCCC(CCC(=O)OC)(C(=O)OCC)c1csc(N)n1 (stereo unspecified)
6: COc1cc(Cn2ccnc2)c(OC)cc1Cn1ccnc1
7: Cc1c(Cl)c([N+](=O)[O-])nn1CC(=O)NC(C)C1CC2CCC1C2 (stereo unspecified)
8: COc1ccc(OC)c(-c2csc(NC(=O)C3=NNC(=O)CC3)n2)c1
Assay by compound,1,2,3,4,5,6,7,8
ClpP mod,x,3.3%,1.8%,1.2%,2.2%,-1.5%,-2.0%,x
Menin-MLL FL inh,0.2,4.7,-0.3,-6.0,-6.1,1.9,3.6,17
PINK1 modulator,8.1%,-0.1%,2.8%,0.1%,17%[38.3 µM],18%[38.3 µM],-1.4%,2.4%
D2 ag,-4.8,-2.7,-1.7,-0.2,-3.5,0.5,-1.4,7.4
gsp antag,-8%,-8%,-3%,0%,12%,5%,-1%,-6%
Sfp PPTase inh,4%,18%,8%,8%,19%,4%,11%,-14%
gsp ag,0%,-42%[inhibitor],u,x,7%,4%,1%,-1%[15.4 µM]

# Some of the entries so far, with bars between the fields:
cpd | SMILES | ClpP mod | Menin-MLL FL inh | PINK1 modulator | D2 ag | gsp antag | Sfp PPTase inh | gsp ag
7 | Cc1c(Cl)c([N+](=O)[O-])nn1CC(=O)NC(C)C1CC2CCC1C2 (stereo unspecified) | -2.0% | 3.6 | -1.4% | -1.4 | -1% | 11% | 1%
1 | O=C1N/C(=N/S(=O)(=O)c2ccccc2)S/C1=C/c1cccnc1 | x | 0.2 | 8.1% | -4.8 | -8% | 4% | 0%
5 | CCCC(CCC(=O)OC)(C(=O)OCC)c1csc(N)n1 (stereo unspecified) | 2.2% | -6.1 | 17%[38.3 µM] | -3.5 | 12% | 19% | 7%

# Later entries:
9: Cc1cc2nc[nH]c2cc1[N+](=O)[O-]
10: Nc1nc(SCC(=O)Nc2ccc(Cl)c(S(=O)(=O)N3CCOCC3)c2)n[nH]1
11: COC(=O)c1cnc(Oc2c(Cl)cc(N)cc2Cl)cc1C(F)(F)F
12: Cc1ccc2c(c1)C(=O)CC(c1ccccc1)S2 (stereo unspecified)
13: CCCCCCNC(=O)O[C@H]1Cn2c(=O)n(CCCCCC)c(=O)n2[C@@H]2CN(S(=O)(=O)c3ccc(C)cc3)C[C@]12O
14: CCC(=O)c1ccc(OCC(=O)Nc2cccc(S(=O)(=O)N3CCCCCC3)c2)cc1
15: O=C(Oc1ccc(Cl)c(Cl)c1)C1=CC=CN2CCS(=O)(=O)N=C12
16: Nc1c(Sc2ccccc2)c(=O)[nH]c(=O)n1Cc1ccccc1
Assay by compound,9,10,11,12,13,14,15,16
ClpP mod,x,-1.3%,x,x,-1.2%,0.2%,4.1%,0.7%
Menin-MLL FL inh,-5.6,4.3,2.9,x,x,x,x,x
PINK1 modulator,-1.4%,0.0%,2.5%,1.5%,u,6.2%,1.4%,0.5%[38.3 µM]
D2 ag,-1.0,-4.7,-1.4,-3.1,-12,4.4,3.2,-5.6
gsp antag,3%,7%,-5%,-9%,x,u,6%,4%
Sfp PPTase inh,6%,8%,29%,x,x,x,x,x
gsp ag,-3%[15.4 µM],26%,21%[15.4 µM],-16%,3%,-14%,17%,10%

17: CN1CCN(c2ccc([N+](=O)[O-])cc2C(=O)c2ccc(Br)cc2)CC1
18: CC(SC(=S)N(C)Cc1cccs1)C(=O)O (stereo unspecified)
19: C=CC[C@H](CC(=O)NCCO)C(=O)N[C@H](COC(=O)[C@@H](CC=C)Cc1ccc(F)cc1)C(C)(C)C
20: CCCCCCNCc1cccc(Br)c1
21: CCCS(=O)(=O)NC(=O)C1(C)CCN(C(=O)Cc2cccc3ccccc23)C1 (stereo unspecified)
22: CCOC(=O)c1ccccc1NC(=O)Cn1cnc2c(cnn2-c2ccccc2)c1=O
23: O=C(O)c1cccc2c1C(=O)c1cc([N+](=O)[O-])cc([N+](=O)[O-])c1-2
24: CCOc1cc(CNc2ccc(O)cc2)ccc1OCc1ccc(Cl)cc1Cl
Assay by compound,17,18,19,20,21,22,23,24
ClpP mod,0.2%,0.1%,2.1%,-0.8%,0.1%,-0.6%,-4.6%,-3.1%
Menin-MLL FL inh,-3.0,0.5,x,-0.8,x,2.4,x,1.4
PINK1 modulator,3.2%,2.3%,0.8%,-0.4%[38.3 µM],1.6%,8.4%,-0.7%,u
D2 ag,-3.1,-1.5,-2.3,-1.8,-1.3,-2.4,74*,44*
gsp antag,22%,5%,-3%,0%,x,1%,x,-15%
Sfp PPTase inh,-7%,-3%,x,5%,x,13%,x,u
gsp ag,-2%,-34%,-14%,0%,x,-2%,22%,10%

# Part of the list above, limited to Sfp PPTase inh and D2 ag:
no. | compound | Sfp PPTase inh | D2 ag
14 | CCC(=O)c1ccc(OCC(=O)Nc2cccc(S(=O)(=O)N3CCCCCC3)c2)cc1 | x | 4.4
15 | O=C(Oc1ccc(Cl)c(Cl)c1)C1=CC=CN2CCS(=O)(=O)N=C12 | x | 3.2
16 | Nc1c(Sc2ccccc2)c(=O)[nH]c(=O)n1Cc1ccccc1 | x | -5.6
17 | CN1CCN(c2ccc([N+](=O)[O-])cc2C(=O)c2ccc(Br)cc2)CC1 | -7% | -3.1
18 | CC(SC(=S)N(C)Cc1cccs1)C(=O)O (stereo unspecified) | -3% | -1.5
19 | C=CC[C@H](CC(=O)NCCO)C(=O)N[C@H](COC(=O)[C@@H](CC=C)Cc1ccc(F)cc1)C(C)(C)C | x | -2.3

# (list continues)
25: O=C(c1ccc(Sc2cccc(Cl)c2)c([N+](=O)[O-])c1)N1CCN(c2ccccn2)CC1
26: CCCCNC(=O)/C=C/c1cccs1
27: O=C1CS/C(=N/N=C2CCCC2)N1
28: CCOC(=O)c1c(S(=O)(=O)NCC(=O)N2CCN(c3ccc(OC)cc3)CC2)c(C)n(C)c1C
29: Cc1cc(NC(=O)COc2cccc(C)c2C)no1
30: CCOc1ccc(-n2c(SCC(N)=O)nnc2-c2cccnc2)cc1
31: Cc1sc(NC(=S)NC(=O)C(C)(C)C)c(C(N)=O)c1C
32: Cc1ccc(S(=O)(=O)N2CCN(C(=O)CC(C)n3nc(C)c(Cl)c3C)CC2)cc1C (stereo unspecified)
33: COCCCN1C(=O)C(=O)/C(=C(/O)c2ccc(S(=O)(=O)N3CCOCC3)cc2)C1c1ccc(F)cc1 (stereo unspecified)
34: COc1ccccc1NC(=O)C1=C(C)Nc2ncnn2C1c1ccccc1C (stereo unspecified)
35: O=C(c1csc(Nc2ccccc2Cl)n1)N1CCCC1
Assay by compound,25,26,27,28,29,30,31,32,33,34,35
ClpP mod,x,-0.6%,x,-5.1%,-0.2%,-1.4%,1.2%,1.9%,x,u,-26%
Menin-MLL FL inh,4.5,2.5,-1.1,x,2.9,2.4,4.9,2.6,x,0.5,0.8
PINK1 modulator,-1.7%,0.5%,-0.2%,0.0%,4.9%,-0.6%,u,3.5%,1.3%,-0.7%,2.5%
D2 ag,-6.6,-3.2,-2.2,1.2,-5.4,-3.5,-3.6,-1.5,1.3,-0.5,0.4
gsp antag,-6%,-15%,14%,-9%,5%,-1%,2%,6%,12%,4%,-5%
Sfp PPTase inh,7%,13%,-4%,2%,3%,10%,u,-7%,8%,-4%,79µM*
gsp ag,15%[15.4 µM],-6%,10%[15.4 µM],36%,15%,-3%[15.4 µM],1%,30%,-46%,1%,-3%

# Profiles as entered above:
# COc1ccccc1NC(=O)C1=C(C)Nc2ncnn2C1c1ccccc1C (stereo unspecified) is listed as ClpP mod = u; Menin-MLL FL inh = 0.5; PINK1 modulator = -0.7%; D2 ag = -0.5; gsp antag = 4%; Sfp PPTase inh = -4%; gsp ag = 1%
# CCCCCCNC(=O)O[C@H]1Cn2c(=O)n(CCCCCC)c(=O)n2[C@@H]2CN(S(=O)(=O)c3ccc(C)cc3)C[C@]12O is listed as ClpP mod = -1.2%; Menin-MLL FL inh = x; PINK1 modulator = u; D2 ag = -12; gsp antag = x; Sfp PPTase inh = x; gsp ag = 3%

# Compound activity from PubChem BioAssay.
